From PubChem BioAssay
AmpC nodet inh = Promiscuous and Specific Inhibitors of AmpC Beta-Lactamase (assay without detergent); P00811; AmpC nitrocefin hydrolysis, absorbance 480 nm, no detergent; potencies from a single point are estimates; Potency, µM (titrated, usually from 28.7 µM), without a hit: top-dose activity change, negative = inhibition; 71,000 tested, 1.8% active; active = falling curve, for most hits resting on a single point; inconclusive = weak or doubtful change; inactive = flat or rising curve; also: % of control where 0% means no effect; about half of the hits show no inhibition at the top dose; a quarter of the inactives give rising signals
Target sequence (P00811 whole entry, looked up): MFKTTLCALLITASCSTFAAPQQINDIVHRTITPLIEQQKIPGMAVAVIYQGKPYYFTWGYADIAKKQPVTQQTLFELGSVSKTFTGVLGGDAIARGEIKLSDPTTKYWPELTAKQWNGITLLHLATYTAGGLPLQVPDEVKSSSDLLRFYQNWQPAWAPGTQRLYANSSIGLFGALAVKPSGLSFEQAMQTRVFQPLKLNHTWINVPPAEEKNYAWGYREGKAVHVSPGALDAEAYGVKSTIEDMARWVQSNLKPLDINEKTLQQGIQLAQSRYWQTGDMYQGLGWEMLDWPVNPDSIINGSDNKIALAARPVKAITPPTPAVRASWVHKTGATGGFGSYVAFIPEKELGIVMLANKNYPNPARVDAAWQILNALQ
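AmpC, 20 mM phosphate pH 7.0; 15 min cpd preinc, RT; start with nitrocefin (800 uM stock); A480 kinetic read, 20 s intervals, 4 min. No-enzyme wells = negative control.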
An asterisk follows results filed as active; [ ] = dose if it differs, or a comment. Potency is read from the fitted curve at half-maximal effect. An excerpt, so the mix of outcomes need not match the whole.

For CCOC(=O)N1CCC(n2c(SCC(=O)NCc3ccccc3)nc3ccccc3c2=O)CC1 the results were AmpC nodet inh 110%.
C=CCn1c(SCC(N)=O)nc(C)cc1=O was read as AmpC nodet inh -5%.
For Cc1oc(-c2ccccc2F)nc1CS(=O)(=O)CC(=O)NCCN(C)C1CCCCC1 the results were AmpC nodet inh 91%.
Screening CC(C)C12CC[C@@]3(CC[C@H]4[C@@](C)(CCC[C@]4(C)C(=O)O)[C@@H]3C1)[C@@H](CN)C2 returned AmpC nodet inh 3%[5.75 µM].
N#CCCN(Cc1cccnc1)S(=O)(=O)c1ccc(S(=O)(=O)NC2CCCCC2)cc1 was read as AmpC nodet inh 86%.
Screening O=C(NCc1cccnc1)c1ccc(CS(=O)(=O)c2ccc(Cl)cc2)o1 returned AmpC nodet inh 10%.
`Cc1ccc(-c2noc(CCC(=O)NCCCN3CCN(c4cccc(Cl)c4)CC3)n2)cc1` gave AmpC nodet inh 156%.
`CC(=O)N1CCN(C(=O)c2cccc(S(=O)(=O)Nc3ccc(C)cc3)c2)CC1` gave AmpC nodet inh 7%.
For COc1ccc(N2CCN(CCNC(=O)CCNS(=O)(=O)c3cccs3)CC2)cc1 the results were AmpC nodet inh 30%.
Screening CCN(CC)CCCN1C(=O)C(O)=C(C(C)=O)C1c1cccc(OC)c1 (stereo unspecified) returned AmpC nodet inh 4%.
Screening CCOC(=O)C1CCCN(c2cc(=O)n(Cc3ccc(F)cc3)c(=O)[nH]2)C1 (stereo unspecified) returned AmpC nodet inh 2%.
Cc1cc(C(F)F)n2nc(C(=O)Nc3cc(C)on3)nc2n1 was read as AmpC nodet inh -3%.
For CCc1ccc(-c2nc(CN3CCCC(C(=O)O)C3)c(C)o2)cc1 (stereo unspecified) the results were AmpC nodet inh 17%.
Screening CCC(=O)Nc1cccc(NC(=O)COc2ccc(OC)cc2)c1 returned AmpC nodet inh 6%.
O=C(O)CCC(=O)N1CCc2cc(S(=O)(=O)NC3CCCC3)ccc21 was read as AmpC nodet inh -7%.
For O=C(Cn1cnc2c(nnn2-c2ccccc2)c1=O)N1CCC(Cc2ccccc2)CC1 the results were AmpC nodet inh 11%.
Screening O=C1NC(=O)C2C3c4ccccc4C(c4ccccc43)C12 (stereo unspecified) returned AmpC nodet inh 8%.
For CCc1ccc(N2CC(C(=O)OCC(=O)Nc3cc(C)on3)CC2=O)cc1 (stereo unspecified) the results were AmpC nodet inh 26%.
O=c1c2ccccc2nnn1CSc1ncnc2ccccc12 was read as AmpC nodet inh -2%.
CCCN(CC1CC1)S(=O)(=O)c1ccc(S(N)(=O)=O)cc1 was read as AmpC nodet inh -7%.
`O=C1CC(C(=O)N(c2ccc(F)cc2)C(C(=O)NC2CCCC2)c2ccccn2)CS1` (stereo unspecified) gave AmpC nodet inh 22%.
O=c1c2c3c(sc2nc2n1CCCCC2)CCCC3 was read as AmpC nodet inh 13%.
Screening Cc1cc(C)n(C(=O)CNC(=O)Cc2ccccc2)n1 returned AmpC nodet inh 13%.
Screening O=C(CN1C(=O)c2ccccc2S1(=O)=O)N1CCOCC1 returned AmpC nodet inh 4%.

Compounds above that have an aryl thioether with sulfur outside any ring (3):
For CCOC(=O)N1CCC(n2c(SCC(=O)NCc3ccccc3)nc3ccccc3c2=O)CC1 the results were AmpC nodet inh 110%.
C=CCn1c(SCC(N)=O)nc(C)cc1=O was read as AmpC nodet inh -5%.
O=c1c2ccccc2nnn1CSc1ncnc2ccccc12 was read as AmpC nodet inh -2%.

Other results follow:
`O=C(COc1ccccc1)N1CCN(CC(O)COc2ccccc2)CC1` (stereo unspecified) gave AmpC nodet inh 87%.
For c1ccc([C@H](c2cccc3c2ccc2ccccc23)[C@H](c2ccccc2)c2cccc3c2ccc2ccccc23)cc1 the results were AmpC nodet inh -14%[5.75 µM].
For CCCCCCOC(=O)C(C#N)c1nc2ccccc2nc1N1CCN(CC)CC1 (stereo unspecified) the results were AmpC nodet inh 125%.
`Cc1noc(C)c1C(=O)Nc1ccccn1` gave AmpC nodet inh -19%.
For Cc1c(C(=O)NCC(C)C)sc2nc(-c3ccc(F)cc3)cn12 the results were AmpC nodet inh -14%.
CC(C)(C)NC(=O)NC(=O)COC(=O)C1CC(=O)N(Cc2ccccc2)C1 (stereo unspecified) was read as AmpC nodet inh 33%.
Screening O=C(COC(=O)Cc1ccc(S(=O)(=O)N2CCOCC2)s1)NCc1ccccc1 returned AmpC nodet inh 14%.
CC1(C)CC(=O)c2cc(C(=O)N3CCCCC3)c(=O)n(-c3ccc(Cl)cc3)c2C1 was read as AmpC nodet inh 0%.
`COc1cc(C2NC(C(=O)O)CS2)ccc1OCc1ccccc1C#N` (stereo unspecified) gave AmpC nodet inh -10%.
For C[C@@H](NCc1cc(Br)cc2[nH]c(=O)c(=O)[nH]c12)P(=O)(O)O the results were AmpC nodet inh 1%.
Cc1ccc(C2/C(=C(/O)c3ccc(Cl)cc3)C(=O)C(=O)N2CC2CCCO2)o1 (stereo unspecified) was read as AmpC nodet inh -7%.
For CCOC(=O)c1sc(C)c(C(N)=O)c1NC1=NCCCCC1 the results were AmpC nodet inh 3%.
`O=C(NCCN1CCOCC1)c1ccc2c(c1)ncn2C1CCCCC1` gave AmpC nodet inh 11%.
Cc1onc(-c2ccccc2Cl)c1C(=O)Nc1ccc(F)c(F)c1 was read as AmpC nodet inh -10%.
`CCOC(=O)C1CCN(c2c(NCc3ccc(C(=O)NC(C)CC)cc3)c(=O)c2=O)CC1` (stereo unspecified) gave AmpC nodet inh 6%.
For CCOCCOc1nc2c(c(=O)n(C)c(=O)n2C)n1Cc1ccc(C)cc1 the results were AmpC nodet inh 14%.
For O=C(Cn1ncc2c(=O)oc3ccccc3c21)N1CCc2ccccc2C1 the results were AmpC nodet inh 4µM*[single pt active].
`CCc1nc(SCC(=O)Nc2cc(C)on2)c2c(=O)n(C)c(=O)n(C)c2n1` gave AmpC nodet inh -3%.
For Cn1c(C(=O)N(Cc2ccccc2)Cc2cccs2)cc2sccc21 the results were AmpC nodet inh 6%.
Screening COc1ccc(NC(=O)Nc2nnc(C(C)C)s2)cc1 returned AmpC nodet inh -7%.
Screening Nc1c(C(=O)NC2CCCC2)c2nc3ccccc3nc2n1/N=C/c1cccnc1 returned AmpC nodet inh 59%.
`CN(C)c1ncc2nc(CCc3ccccc3)c(=O)n(CCc3ccccc3)c2n1` gave AmpC nodet inh 5%.
O=C(CC(C(=O)O)N1CCOCC1)Nc1ccc(Cl)cc1 (stereo unspecified) was read as AmpC nodet inh 2%.
`Cc1ccc2oc(=O)c3cnn(CC(=O)N(CCCN4CCOCC4)Cc4ccco4)c3c2c1` gave AmpC nodet inh 34%.
N#C/C(=C\N1CCNC1=S)C(=O)c1ccc2ccccc2c1 was read as AmpC nodet inh -15%[5.75 µM].
COc1ccc(C(=O)N2CCN=C2c2ccccc2)cc1OC was read as AmpC nodet inh -17%.
Screening CCCC(=O)Nc1ccc(NC(=O)c2cccc(OC)c2)nc1 returned AmpC nodet inh -10%.
Screening CN1C(=O)c2ccccc2C(C(=O)NCc2ccco2)C1c1c[nH]c2ccccc12 (stereo unspecified) returned AmpC nodet inh 16%.
`C=CCSc1nc2ccccc2n1Cc1nnc(-c2cccs2)o1` gave AmpC nodet inh 13%.
Screening O=C1C2(Cl)C3(Cl)C4(Cl)C(Cl)(Cl)C5(Cl)C3(Cl)C1(Cl)C5(Cl)C24Cl (stereo unspecified) returned AmpC nodet inh inconclusive.
COc1ccc(N2CCN(C(=O)CSc3nc4c(c(=O)n(C)c(=O)n4C)n3C(C)C)CC2)cc1 was read as AmpC nodet inh 112%.
`FC(F)(F)c1cc(CO[C@@H]2CCCN[C@H]2c2ccccc2)cc(C(F)(F)F)c1` gave AmpC nodet inh 31%.
For Cc1cccc(C)c1OC[C@@H](N)C(C)C the results were AmpC nodet inh -5%.
CCCn1nc(C(=O)NCCc2ccc(S(N)(=O)=O)cc2)c2ccccc2c1=O was read as AmpC nodet inh -13%.
`COc1ccc(NC(=O)CN2CCN(c3ccc(Cl)cc3)CC2)c(OC)c1` gave AmpC nodet inh 123%.
Screening C=Cc1c(C)c2cc3nc(cc4[nH]c(cc5nc(cc1[nH]2)C(C)=C5CCC(=O)O)c(CCC(=O)OC)c4C)[C@@]1(C)C3=CC=C(C(=O)OC)[C@H]1C(=O)OC (tested in a mixture with another compound) returned AmpC nodet inh 90%[12.8 µM].
COc1c2c(nc3ccccc13)O[C@@H]([C@@](C)(O)CO)C2 was read as AmpC nodet inh 6%.
CN(C)C=Nc1c(Br)cc(Br)c2nonc12 was read as AmpC nodet inh -21%.
Screening CCC(=O)N1CCc2cc(S(=O)(=O)NCCC(=O)N3CCN(c4ccccn4)CC3)ccc21 returned AmpC nodet inh 34%.
For CC(C)(C)NC(=O)C(c1ccccn1)N(C(=O)c1ccc2c(c1)OCCO2)C1CCCC1 (stereo unspecified) the results were AmpC nodet inh 72%.
`COc1ccc2c(c1OC)C(=O)OC2CC(=O)c1ccc(O)cc1` (stereo unspecified) gave AmpC nodet inh -17%.
CC(=O)Nc1ccc(C(=O)Nc2ccc(S(=O)(=O)NCC3CCCO3)cc2)cc1 (stereo unspecified) was read as AmpC nodet inh 10%.
CC(=O)c1ccc(OCC(C)C)c(CN2CCCCC2)c1 was read as AmpC nodet inh -1%.
For CCCCCCn1c(CN2CCCCC2)nc2c1c(=O)n(C)c(=O)n2C the results were AmpC nodet inh 68%.
Screening FC(F)(F)c1cc(CN2CCC3(CCNCC3)CC2)cc(C(F)(F)F)c1 returned AmpC nodet inh 18%.
`CCCC/C(C)=C/[C@@H](NP(=O)(c1ccccc1)c1ccccc1)c1ccccc1` gave AmpC nodet inh 41%.
CNc1nc(CC(C)=O)ns1 was read as AmpC nodet inh -5%.
`CCOC(=O)N1CCN(Cc2nc3c(c(=O)n(C)c(=O)n3C)n2Cc2ccccc2)CC1` gave AmpC nodet inh -2%.
`COC(=O)c1cccc(NC(=O)Cc2coc3cc(OC)ccc23)c1` gave AmpC nodet inh -14%.
Cc1ccc(N2CCN(S(=O)(=O)N(C)C)CC2)cc1Cl was read as AmpC nodet inh 6%.
Screening CCOC(=O)N1CCN(c2cc(=O)n(-c3ccc(OCC)cc3)c(=O)[nH]2)CC1 returned AmpC nodet inh 14%.
For O=C(O)C1C2C=CC(O2)C1C(=O)NCc1ccc2c(c1)OCO2 (stereo unspecified) the results were AmpC nodet inh -2%.
For Cc1c(C#N)c2ccccc2n1CCOc1ccccc1F the results were AmpC nodet inh -14%.
COc1cc(S(=O)(=O)N2CCOCC2)cc(C(=O)c2nccn2C)c1OC was read as AmpC nodet inh 74%.
CCn1c(-c2c[nH]c3ccccc23)n[nH]c1=S was read as AmpC nodet inh -2%.
Screening COc1ccccc1C1C(C(=O)NCc2ccccc2)=C(C)Nc2ncnn21 (stereo unspecified) returned AmpC nodet inh 7%.
For CC1(C)CC2CC(C)(CN2C(=O)CN2C(=O)c3ccccc3C2=O)C1 (stereo unspecified) the results were AmpC nodet inh 31%.
For CCOC(=O)c1[nH]c(C)c(C(=O)N2CCN(C(=O)OCC)CC2)c1CC the results were AmpC nodet inh 37%.
For CC(C)(Oc1ccc(Cl)cc1)C(=O)Nc1ccc2oc(-c3ccncc3)nc2c1 the results were AmpC nodet inh 75%.
C[N+]1(NCC[N@@+]2(C)CCc3ccccc3C2)CCCCC1 was read as AmpC nodet inh -5%[5.75 µM].
For COc1ccc(N2CCN(C(=O)CCn3nnc4ccccc43)CC2)cc1 the results were AmpC nodet inh 28%.
For CN(C)c1nc(-c2ccccc2C(F)(F)F)nc2ccccc12 the results were AmpC nodet inh 24%.
`O=C(CC(c1ccccc1)c1cc(Cl)ccc1O)N1CCOCC1` (stereo unspecified) gave AmpC nodet inh 7%.
For CCCN1C(=O)C(O)(CC(=O)c2cccc(OC)c2)c2ccccc21 (stereo unspecified) the results were AmpC nodet inh 29%.
CC(=O)NC(CCS(C)(=O)=O)C(=O)Nc1ccccc1C (stereo unspecified) was read as AmpC nodet inh -5%.
Screening c1csc(CN2CC[C@@]3(CCCNC3)C2)n1 returned AmpC nodet inh 6%.
`COc1ccccc1CNc1cc(-c2ccc(C(=O)N(C)C)cc2)ncn1` gave AmpC nodet inh 65%.
For Nc1c(C(=O)NCCN2CCOCC2)c2nc3ccccc3nc2n1-c1cccc(F)c1 the results were AmpC nodet inh 159%.
Cc1ccccc1-c1cncnc1N(C)Cc1ccco1 was read as AmpC nodet inh 33%.
Screening Cc1cccc(-n2nnnc2SC(C)C(=O)NCCC2=CCCCC2)c1 (stereo unspecified) returned AmpC nodet inh 31%.

Among those listed so far, eleven have fluorine.
For Cc1oc(-c2ccccc2F)nc1CS(=O)(=O)CC(=O)NCCN(C)C1CCCCC1 the results were AmpC nodet inh 91%.
Screening CCOC(=O)C1CCCN(c2cc(=O)n(Cc3ccc(F)cc3)c(=O)[nH]2)C1 (stereo unspecified) returned AmpC nodet inh 2%.
Cc1cc(C(F)F)n2nc(C(=O)Nc3cc(C)on3)nc2n1 was read as AmpC nodet inh -3%.
`O=C1CC(C(=O)N(c2ccc(F)cc2)C(C(=O)NC2CCCC2)c2ccccn2)CS1` (stereo unspecified) gave AmpC nodet inh 22%.
For Cc1c(C(=O)NCC(C)C)sc2nc(-c3ccc(F)cc3)cn12 the results were AmpC nodet inh -14%.
Cc1onc(-c2ccccc2Cl)c1C(=O)Nc1ccc(F)c(F)c1 was read as AmpC nodet inh -10%.
`FC(F)(F)c1cc(CO[C@@H]2CCCN[C@H]2c2ccccc2)cc(C(F)(F)F)c1` gave AmpC nodet inh 31%.
Screening FC(F)(F)c1cc(CN2CCC3(CCNCC3)CC2)cc(C(F)(F)F)c1 returned AmpC nodet inh 18%.
For Cc1c(C#N)c2ccccc2n1CCOc1ccccc1F the results were AmpC nodet inh -14%.
For CN(C)c1nc(-c2ccccc2C(F)(F)F)nc2ccccc12 the results were AmpC nodet inh 24%.
For Nc1c(C(=O)NCCN2CCOCC2)c2nc3ccccc3nc2n1-c1cccc(F)c1 the results were AmpC nodet inh 159%.
